Bioassay records from PubChem BioAssay.
HSV augment: increases HSV replication in cells. HSV replication augmentation in cells, fold increase. maximum fold increase. 220,000 compounds, 0.005% hits;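 active = peak rise of 1.5-fold or more in the series; tested in PC3 cells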;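 also: first round at 10 µM; read as green reporter fluorescence; hits show the peak of a series up to 25 µM; 1 = signal of infected wells without compound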
RGS16-Gao HTS: regulators of human RGS16-Galphao interaction; O15492+P09471; binding response (% of control), % at 10 µM; 220,000 compounds, 0.38% hits; bead-based flow cytometry RGS16-Galphao binding, fluorescence; actives lie on both sides;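 active = below 25% or above 175%, edge rows of some plates excepted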;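 also: Galphao activated by GDP with aluminum fluoride before binding; 100% = wells without compound and 0% = beads without RGS; some results beyond the cut were filed as inactive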
Target sequence (O15492 whole entry, looked up): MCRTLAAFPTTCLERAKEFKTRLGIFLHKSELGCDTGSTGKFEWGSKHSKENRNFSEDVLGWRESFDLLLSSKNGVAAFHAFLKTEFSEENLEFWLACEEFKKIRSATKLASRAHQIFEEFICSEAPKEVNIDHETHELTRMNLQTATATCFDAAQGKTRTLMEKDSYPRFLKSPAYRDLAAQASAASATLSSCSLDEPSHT
Target sequence (P09471 whole entry, looked up): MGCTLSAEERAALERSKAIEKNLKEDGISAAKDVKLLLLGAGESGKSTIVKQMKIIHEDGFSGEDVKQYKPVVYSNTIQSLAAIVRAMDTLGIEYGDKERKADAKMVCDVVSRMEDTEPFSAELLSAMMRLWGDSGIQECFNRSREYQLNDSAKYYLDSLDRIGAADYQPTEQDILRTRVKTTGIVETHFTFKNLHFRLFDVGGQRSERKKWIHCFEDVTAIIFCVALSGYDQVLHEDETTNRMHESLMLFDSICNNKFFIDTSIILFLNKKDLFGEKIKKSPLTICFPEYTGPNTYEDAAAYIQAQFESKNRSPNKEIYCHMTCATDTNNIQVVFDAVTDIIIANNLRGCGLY
PKD1 kinase inh: PKD1 (human) kinase inhibition; 200,000 compounds, 0.056% hits; Q15139; inhibition, %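 (about 10 µM by stock and volumes)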; PKD1 kinase fluorescence polarization assay;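 active = inhibition of 50% or more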;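 also: controls were vehicle for no effect and a reference inhibitor for full effect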
INS promoter inh: TRM-6 insulin promoter activity inhibition; inhibition, % at 2 µM; 130,000 compounds, 0.9% hits; AID 1273; TRM-6 cells (human fetal islet line), insulin promoter-eGFP reporter, imaging; reporter expression induced with tamoxifen;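 active = inhibition above the mean plus 3 SD, with well images judged a real hit on visual review, cut at about 60% in these data, passing the limit was not always enough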
GALR2 ag: GALR2 (human) receptor agonism; O43603; GALR2-expressing cells, agonist activation read-out; activation, %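 (tested at 5 µM)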; 140,000 compounds, 0.48% hits; AID 803;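 active = above mean plus 3 SD of all compounds, about 5% in these data, not always enough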;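 also: 0% = vehicle buffer wells and 100% = reference agonist at full effect; tested in CHO reporter cells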
Target sequence (O43603 whole entry, looked up): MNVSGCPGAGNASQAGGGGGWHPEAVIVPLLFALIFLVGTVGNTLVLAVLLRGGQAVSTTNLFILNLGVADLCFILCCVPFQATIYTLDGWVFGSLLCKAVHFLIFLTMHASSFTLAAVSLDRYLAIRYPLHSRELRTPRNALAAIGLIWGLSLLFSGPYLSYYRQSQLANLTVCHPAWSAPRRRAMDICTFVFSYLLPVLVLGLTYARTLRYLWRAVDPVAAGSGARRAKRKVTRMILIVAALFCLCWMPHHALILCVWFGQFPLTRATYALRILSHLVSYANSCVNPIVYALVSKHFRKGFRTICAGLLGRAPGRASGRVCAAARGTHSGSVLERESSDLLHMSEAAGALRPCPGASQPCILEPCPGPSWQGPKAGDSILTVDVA
INS promoter inh cell count: also measured in INS promoter inh; calls as there; normalized cell count, %; measured here: cell count, toxicity; reference of the scale not given here;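 cells exposed to compound for 48 h; stained nuclei by imaging scaled within each plate; lower means fewer cells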
HSV augment primary fold: also measured in HSV augment; calls as there; fold increase; compound at 10 µM; measured here: primary screen fold increase 10 uM; tested in PC3 cells;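 GFP signal in the first replicate; 1 = infected wells without compound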
* = called active by the depositor; i = inactive; x = not tested or not shown.

SMILES	HSV augment	HSV augment primary fold	RGS16-Gao HTS	PKD1 kinase inh	INS promoter inh	INS promoter inh cell count	GALR2 ag
CCCOc1ccc(C(=O)Nc2ccc(Cl)cn2)cc1	i	1.1	105	1	-67	98	-0.2
CCCOc1ccc(NC2=CC(=O)CC(C)(C)C2)cc1	i	0.79	103	13	-10	103	0.7
O=C(COc1ccccc1)c1cn(CC(=O)N2CCOCC2)c2ccccc12	i	0.95	72	-4	-183	66	-3.0
CCCCn1c(/C=C/c2ccco2)nc2ccccc21	i	1.2	160	7	x	x	-1.2
Cc1nc(SCc2ccc(F)cc2)c2oc3ccccc3c2n1	i	0.91	101	x	x	x	x
COc1cc(NC(=O)CN2CCCCC2)c(C)cc1[N+](=O)[O-]	i	1	103	-9	x	x	-0.6
CC(=O)O/N=C(\N)c1cnn2c(C(F)(F)F)cc(C(F)(F)F)nc12	i	0.94	109	x	x	x	x
CC(=O)C1=C(C)OC(N)=C(C#N)C1c1cc([N+](=O)[O-])ccc1Cl (centres undefined)	i	0.86	106	x	x	x	x
CC1CCCN(C(=O)CCS(=O)(=O)Cc2ccccc2)C1 (centres undefined)	i	1	101	7	22	94	-0.4
CCC1NC(=S)NC(C)=C1C(=O)c1ccccc1 (centres undefined)	i	1.1	99	-3	35	189	x
N#CC1=C(N)N(c2ccccc2)C(c2ccco2)C1(C#N)C#N (centres undefined)	i	0.84	78	-4	-6	203	1.8
CCCC(=O)Nc1c2c(nn1-c1ccc(C)cc1C)CSC2	i	1.1	105	12	-33	42	-0.7
O=C1c2ccccc2C(O)(c2ccccc2)N1c1ccncc1 (centres undefined)	i	0.88	93	x	x	x	x
CC1(C)C(=O)Nc2ccccc2N1C(=O)COC(=O)C12CC3CC(CC(O)(C3)C1)C2	i	0.84	96	-7	-26	89	-2.3
CCOC(=O)CSc1nc2cc3c(cc2cc1C)OCO3	i	0.96	97	6	50	114	x
Cc1cc(C)n2nc(C(=O)N/N=C/c3cccs3)nc2n1	i	1	95	0	x	x	x
Cc1ccc(N2C(=S)NC3c4cc(Cl)ccc4OC2(C)C3C(=O)N(C)C)cc1 (centres undefined)	i	1	89	-6	x	x	x
CCN(CC)S(=O)(=O)c1ccc(C(=O)OCC(=O)N2CCN(C(=O)c3ccco3)CC2)cc1	i	0.93	103	2	30	58	-0.9
CCC1CCCN1Cn1cnc2c([nH]c3ccc(C)cc32)c1=O (centres undefined)	i	0.87	105	0	-17	84	-2.1
COc1ccccc1OCCSc1nnc(C)n1-c1ccccc1	i	1	96	1	-83	45	-1.5
CCOC(=O)N1CCN(C(=O)c2cnn3c(C)c(Cc4ccc(C)cc4)c(C)nc23)CC1	x	x	51	-3	x	x	-2.0
CCOc1cc(CNc2ccc3c(c2)CCC3)ccc1OC	i	0.87	100	-6	6	108	-1.5
Cc1[nH]oc(=O)c1N=Nc1c(Cl)cccc1Cl	i	0.99	102	-3	23	89	-2.1
CCOC(=O)c1c(N)nn(C(=O)C(C)C)c1-c1ccc(OC)cc1	i	0.81	102	-10	79*	97*	0.4
CC(=O)Nc1cnc2ccccc2n1	i	0.96	108	1	-4	128	-0.9
COc1ccc(N=Cc2c(O)ccc3ccccc23)cc1	i	0.88	106	-4	x	x	x
CC1=C(C(=O)NCc2ccccc2)C(c2cccnc2)n2ncnc2N1 (centres undefined)	i	0.98	73	6	x	x	-2.8
Clc1ccc(-n2cccc2/C=N/n2cnnc2)cc1	i	0.93	135	-5	-6	85	-0.6
CC(=O)c1c(N2CCOCC2)nc(=S)n(Cc2ccccc2)c1C	i	0.96	111	-5	-50	73	-3.1
CCN1C(=O)C(CC(=O)Nc2ccc(F)cc2)N(CCc2ccc(OC)cc2)C1=S (centres undefined)	i	0.93	110	-3	x	x	x
Cc1cc(C)n(C(=O)C(C)n2nc([N+](=O)[O-])c(Br)c2C)n1 (centres undefined)	i	1.3	97	-5	x	x	-1.2
O=C1CC(NCc2ccc(F)cc2)C(=O)N1c1ccccc1 (centres undefined)	i	0.94	97	-13	x	x	x
CSc1ccc(CNc2ccc(C)cc2)cc1	i	0.67	110	-7	x	x	0.1
COc1ccc(N2CCN(c3nc4c(c(=O)n(C)c(=O)n4C)n3Cc3ccccc3)CC2)cc1	i	0.83	101	-4	-13	98	-0.9
COc1ccc(C(=O)Nc2ccc(-c3ccc(C)o3)cc2)cc1S(=O)(=O)N1CCOCC1	i	0.89	103	10	-33	146	-3.5
CC(C)CC(OC(=O)c1cccs1)C(=O)NCc1cccs1 (centres undefined)	i	1	110	-18	-27	114	-2.0

Compounds shown so far containing an aryl methoxy group (8):
SMILES	HSV augment	HSV augment primary fold	RGS16-Gao HTS	PKD1 kinase inh	INS promoter inh	INS promoter inh cell count	GALR2 ag
COc1cc(NC(=O)CN2CCCCC2)c(C)cc1[N+](=O)[O-]	i	1	103	-9	x	x	-0.6
COc1ccccc1OCCSc1nnc(C)n1-c1ccccc1	i	1	96	1	-83	45	-1.5
CCOc1cc(CNc2ccc3c(c2)CCC3)ccc1OC	i	0.87	100	-6	6	108	-1.5
CCOC(=O)c1c(N)nn(C(=O)C(C)C)c1-c1ccc(OC)cc1	i	0.81	102	-10	79*	97*	0.4
COc1ccc(N=Cc2c(O)ccc3ccccc23)cc1	i	0.88	106	-4	x	x	x
CCN1C(=O)C(CC(=O)Nc2ccc(F)cc2)N(CCc2ccc(OC)cc2)C1=S (centres undefined)	i	0.93	110	-3	x	x	x
COc1ccc(N2CCN(c3nc4c(c(=O)n(C)c(=O)n4C)n3Cc3ccccc3)CC2)cc1	i	0.83	101	-4	-13	98	-0.9
COc1ccc(C(=O)Nc2ccc(-c3ccc(C)o3)cc2)cc1S(=O)(=O)N1CCOCC1	i	0.89	103	10	-33	146	-3.5

New compounds follow:
SMILES	HSV augment	HSV augment primary fold	RGS16-Gao HTS	PKD1 kinase inh	INS promoter inh	INS promoter inh cell count	GALR2 ag
COC(=O)CSc1nc(C)cc(C)n1	i	1.1	103	-9	x	x	x
COc1ccc(OCC(=O)N/N=C/C2CC=CCC2)cc1 (centres undefined)	i	1	106	-2	31	99	x
CCSc1nnc(NC(=O)Cc2ccc(OC)c(S(=O)(=O)N3CCOCC3)c2)s1	i	0.98	110	-8	x	x	0.4
Cc1ccc(C)c(C(=O)COc2ccc(C)nc2[N+](=O)[O-])c1	i	0.81	91	0	7	100	-2.4
Cc1nc(/C(=N/O)C(N)=O)cs1	i	0.89	100	x	x	x	x
COCCn1c(=O)[nH]c2cc(C(=O)OC)ccc2c1=O	i	1.2	110	3	x	x	-1.3
Cc1cccc2sc(NC(=O)C3=NN(c4ccccc4)C(=O)CC3)nc12	i	0.97	105	1	x	x	0.5
Cn1c(C(=O)N2COCC2(C)C)cc2c(=O)n3ccccc3nc21	x	x	104	0	-7	142	-0.2
N/C(=N\OC(=O)c1cc(-c2ccccc2)nc2ccccc12)c1ccncc1	i	0.87	122	-9	x	x	-2.4
Cc1ccc(CSc2ccc(C(=O)N3CCOCC3)cc2[N+](=O)[O-])cc1	i	0.95	111	-2	-33	74	x
O=C1CCCc2nc(N3CCCCC3)sc21	i	0.92	99	0	38	121	-1.9
N#C/C(=C/C=C/c1ccccc1)C(=O)Nc1ccccc1	i	0.8	102	8	44	94	-1.3

Five structures out of the list, arranged by molecular weight, highest first:
SMILES	HSV augment	HSV augment primary fold	RGS16-Gao HTS	PKD1 kinase inh	INS promoter inh	INS promoter inh cell count	GALR2 ag
CCSc1nnc(NC(=O)Cc2ccc(OC)c(S(=O)(=O)N3CCOCC3)c2)s1	i	0.98	110	-8	x	x	0.4
Cc1cccc2sc(NC(=O)C3=NN(c4ccccc4)C(=O)CC3)nc12	i	0.97	105	1	x	x	0.5
Cc1ccc(C)c(C(=O)COc2ccc(C)nc2[N+](=O)[O-])c1	i	0.81	91	0	7	100	-2.4
COCCn1c(=O)[nH]c2cc(C(=O)OC)ccc2c1=O	i	1.2	110	3	x	x	-1.3
O=C1CCCc2nc(N3CCCCC3)sc21	i	0.92	99	0	38	121	-1.9

Carrying on.
SMILES	HSV augment	HSV augment primary fold	RGS16-Gao HTS	PKD1 kinase inh	INS promoter inh	INS promoter inh cell count	GALR2 ag
CCOc1c(Cl)cc(CNCC(C)C)cc1OC	i	0.95	102	3	x	x	-3.1
O=C(/C=C/Nc1ccc(F)cc1)c1ccco1	i	1	98	-3	44	153	-0.5
CCOC(=O)c1cc(C#N)c(SC)nc1C	i	0.88	102	x	x	x	x
COc1ccc(/C=N/NC(=O)c2cccnc2)c(C(=O)O)c1OC	i	0.98	104	x	x	x	x
CC1(C)Oc2ccc(C(=O)NC3CCCC3)cc2N(CC(=O)NC2CCCCC2)C1=O	i	0.72	102	-4	-25	68	-1.9
Cc1cc(C)cc(N(CC(=O)NCc2ccco2)C(=O)CCC(=O)Nc2ccccn2)c1	i	1.1	102	-3	x	x	-1.1
Cc1cc(O)c(-c2cc(C(=O)Nc3ccc(S(=O)(=O)N4CCOCC4)cc3)[nH]n2)cc1C	i	0.9	111	-2	37	69	0.2
Cc1sc2nc(-c3ccco3)oc(=O)c2c1C	i	0.88	103	-4	3	104	-4.1
COc1ccccc1CC(=O)Nc1ccc(-c2nnc(-c3ccco3)o2)cc1	i	0.95	100	11	x	x	-1.7
Cc1nc(-c2ccccc2)sc1-c1nc(-c2cccs2)ncc1S(=O)(=O)c1ccccc1	i	1	103	4	x	x	-1.2
c1ccc(Cn2nnc3c(NCC4CCCO4)nc(C4CC4)nc32)cc1 (centres undefined)	i	0.98	145	-3	33	81	x
O=C(c1cc2nc(-c3ccccc3)cc(C(F)(F)F)n2n1)N1CCOCC1	i	1	98	-1	-16	192	-3.3
Cc1nnc(SCC(=O)N2c3ccccc3CC2C)[nH]c1=O (centres undefined)	i	1.1	100	5	58	101	-1.0
COC(=O)c1ccc(NC(=O)CN(C2CCCCC2)S(C)(=O)=O)cc1	i	0.98	101	1	3	200	-0.6
Cc1ccc(SCCc2cc[n+](CC(=O)c3ccccc3)cc2)cc1	i	1.2	122	0	-157	80	x
O=C(Nc1ccc(Br)cc1)c1cccc(NC(=O)C2C3CC4OC(=O)C2C4C3)c1 (centres undefined)	i	0.78	106	-2	15	135	-1.1
C/C=C(\C)C(=O)OC1c2c(ccc3ccc(=O)oc23)OC(C)(C)C1OC(C)=O (centres undefined)	i	0.88	163	-1	28	117	0.9
COc1ccc(C(CC(=O)O)n2cnnn2)cc1 (centres undefined)	i	1.1	99	7	x	x	x
CCCn1c(=O)c(C(=O)c2ccccc2)nc2ccccc21	i	1.3	122	-2	21	107	-1.4
Cc1ccc(-n2nc(N)c3c(=O)oc(N(C)C)nc32)cc1	i	0.81	93	-1	32	133	-1.5
Cc1nc(SCCO)c2oc3ccccc3c2n1	i	0.73	102	-3	42	99	-1.8
Cc1nnc(NC(=O)CSc2nnc(Cc3cccn3C)n2-c2cccc(C)c2C)s1	x	x	99	-8	x	x	-1.0
CCCCC(=O)Nc1ccc(Cl)cn1	i	0.91	105	11	9	141	-0.9
CN(Cc1ccccc1)C(=O)COC(=O)c1ccc(Cl)cc1N	i	0.92	102	0	x	x	x
